From PubChem
PINK1 expr mod – A Quantitative High throughput Screen to Identify Chemical Modulators of PINK1 Expression. 410,000 tested, 0.2% active. PINK1 immunofluorescence, high-content cytometry, 24 h. Potency, µM (top dose mostly 76.6 µM), without a hit: top-dose activation (PINK1 increase), usual class: activators. AID 624263, 2012; active = well fitted activation curve with a large enough effect; inconclusive = small, poorly fitted or top-dose-only effect; inactive = flat fitted curve, though single readings scatter; cell line not stated here;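 further: potency means the concentration at half of the fitted maximal effect; % of control where 0% means no effect; nearly all actives have a fitted effect of over 65% in size; a mitochondrial uncoupler was the plate control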
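Readout is PINK1 immunofluorescence, quantified alongside mitochondrial, cell and nuclear markers by laser-scanning microplate cytometry. Cells from a stable line were exposed to compound titrations (5 concentrations) for 24 hours, with CCCP controls.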
D2 ag – Beta-Arrestin HTS for Positive Allosteric Modulators of the Human D2 Dopamine Receptor: Agonists; 360,000 tested, 0.084% active; D(2) dopamine receptor (Homo sapiens), P14416; DiscoveRx PathHunter D2 beta-arrestin, luminescence, 90 min; 100% = 57 uM dopamine signal; AID 624465, 2012; activation, % (concentration not given with the values); in the data active = activation above about 40%; inconclusive = about 15% to 40%; inactive = below about 15%; further: compound concentration not given in the record; the text of the record calls up to 30% inactive
Target sequence (P14416 whole entry, looked up): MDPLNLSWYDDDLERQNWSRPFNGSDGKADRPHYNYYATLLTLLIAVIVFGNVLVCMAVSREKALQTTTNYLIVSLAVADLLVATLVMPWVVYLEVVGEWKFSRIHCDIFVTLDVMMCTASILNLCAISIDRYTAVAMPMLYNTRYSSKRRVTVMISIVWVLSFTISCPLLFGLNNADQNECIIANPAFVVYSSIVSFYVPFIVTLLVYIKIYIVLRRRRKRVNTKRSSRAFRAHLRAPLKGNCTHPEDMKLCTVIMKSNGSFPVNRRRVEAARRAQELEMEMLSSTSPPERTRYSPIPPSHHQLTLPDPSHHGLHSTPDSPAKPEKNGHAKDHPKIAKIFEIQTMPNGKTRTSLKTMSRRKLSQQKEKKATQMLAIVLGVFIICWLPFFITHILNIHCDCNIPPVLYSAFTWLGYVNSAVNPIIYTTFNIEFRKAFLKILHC
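DiscoveRx PathHunter D2 beta-arrestin cells (2,100/well) attached overnight, then compound-stimulated 90 min at 37 C in HBSS/10 mM HEPES/0.1% Tween-20 buffer; beta-galactosidase complementation read by luminescence after 1 h at ambient temperature. Dopamine 57 uM final (EC100) as control.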
Six1-Eya2 blk – qHTS Assay for Inhibitors of the Six1/Eya2 Interaction. Homeobox protein SIX1 (Homo sapiens) + Protein phosphatase EYA2 (Homo sapiens), …. AlphaScreen GST-Six1/His-Eya2 binding, biochemical; stronger effect = lower value; control for the full effect not named in the record. activity change, % (test concentration not listed). 360,000 tested, 0.56% active. AID 651725, 2012; in the data active = activity change below about -65%; inconclusive = about -30% to -65%; inactive = above about -30%; further: on the % scale 0 is the no-effect control and ±100 the full control effect; compound concentration not given in the record
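AlphaScreen luminescence read after one hour at 37 °C in darkness. Pin-transferred compounds met GST-Six1 and His-Eya2 protein (5X stock 250 nM/500 nM) plus glutathione donor and Ni-chelate acceptor beads (5X, 50 ug/mL).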
TRPML1 agonist – qHTS for Agonists of the Human Mucolipin Transient Receptor Potential 1 (TRPML1); TRPML1-expressing cells, Ca2+ dye fluorescence, FDSS; host cell line not named in the record; reference of the full effect not given here; activation, % (concentration not given with the values); 410,000 tested, 0.12% active; in the data active = activation above about 50%; inconclusive = about 30% to 50%; inactive = below about 30%; further: 0% is about no effect; the text of the record puts the active cut at 80%
Target sequence (Q9GZU1 whole entry, looked up): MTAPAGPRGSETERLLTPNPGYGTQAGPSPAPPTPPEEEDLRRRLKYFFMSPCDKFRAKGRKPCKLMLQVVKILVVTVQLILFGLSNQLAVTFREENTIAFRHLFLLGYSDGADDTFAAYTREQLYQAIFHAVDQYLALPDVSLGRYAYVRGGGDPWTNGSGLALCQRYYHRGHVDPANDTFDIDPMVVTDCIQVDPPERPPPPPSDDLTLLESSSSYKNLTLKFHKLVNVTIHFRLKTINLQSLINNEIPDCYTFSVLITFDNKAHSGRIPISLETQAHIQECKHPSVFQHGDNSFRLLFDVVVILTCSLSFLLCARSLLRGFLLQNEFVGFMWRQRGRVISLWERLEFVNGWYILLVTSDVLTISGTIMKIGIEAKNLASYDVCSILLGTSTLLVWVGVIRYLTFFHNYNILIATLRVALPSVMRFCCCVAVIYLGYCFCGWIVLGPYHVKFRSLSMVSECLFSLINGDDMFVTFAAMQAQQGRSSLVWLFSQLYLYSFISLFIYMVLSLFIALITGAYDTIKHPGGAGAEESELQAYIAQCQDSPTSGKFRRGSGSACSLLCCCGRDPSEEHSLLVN
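Calcium fluorescence on an FDSS kinetic reader gave the read-out. Tet-induced TRPML1-DL cells were plated overnight, dye-loaded (Ca8 with quencher, 45-90 min, room temperature, dark), then read 110 s after compound addition, and again 110 s after 4uM final 54-4 (EC80).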
CtBP-E1A blk – qHTS Assay for Inhibitors of the CtBP/E1A Interaction; 340,000 tested, 0.49% active; AID 651724, 2012; activity change, % (test concentration not listed); AlphaScreen GST-E1A/His-CtBP binding, 1536-well; stronger effect = lower value; control for the full effect not named in the record; in the data active means activity change below about -65%; inconclusive means about -30% to -65%; inactive means above about -30%; further: on the % scale 0 is the no-effect control and ±100 the full control effect; compound concentration not given in the record
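Steps: dispense buffer (Tris pH 8.0, NaCl 300 mM, TCEP 1 mM, BSA, Tween 20); add 5X protein mix (GST-E1A, His-CtBP, 125 nM each); pin 23 nL compound; 2 h at 37 °C, dark; add 5X beads (50 ug/mL); 1 h; read.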
D2 potentiator – Beta-Arrestin HTS for Positive Allosteric Modulators of the Human D2 Dopamine Receptor: Potentiators | AID 624464, 2012 | potentiation, % (test concentration not listed) | 360,000 tested, 0.23% active | DiscoveRx D2 beta-arrestin cells, luminescence, 90 min; 100% = 57 uM dopamine signal | D(2) dopamine receptor (Homo sapiens), P14416; active = potentiation of 50% or more; inconclusive = 30% to 50%; inactive = 30% or less;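 further: compound concentration not given in the record; tested on top of an EC20 dose of dopamine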
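D2 cells co-treated with compound plus 50 nM dopamine (EC20) for 90 min at 37 deg C to detect potentiation. Beta-arrestin recruitment was read as enzyme-fragment luminescence after 1 h at ambient temperature. Full response was set by 57 uM dopamine.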
Numbers without * were called inactive; ? = inconclusive; . = not tested or not shown; [ ] = another dose, or the depositor's remark.

SMILES	PINK1 expr mod	D2 ag	Six1-Eya2 blk	TRPML1 agonist	CtBP-E1A blk	D2 potentiator
COc1cc(N2C(=O)CSC2=S)cc(OC)c1OC	7.1%	-1.5	-9	1.1	.	-5
COc1cc(CNCCO)cc(Br)c1OCc1cccs1	-0.6%	-1.6	-1	-0.8	0	-23
CCc1noc(C)c1C(=O)N1CCN(S(=O)(=O)c2ccc(Cl)s2)CC1	1.7%	-0.4	-1	-0.6	4	-10
CCCOc1ccc(C(=O)Nc2ccc(NC(=O)c3cccs3)cc2)cc1	3.5%	-1.4	3	0.8	-2	1
Cc1ccccc1OCCn1c(=S)[nH]c2c(N)ncnc21	0.9%	7.0	-7	-0.9	.	-9
Cn1cc(/C=C(\NC(=O)c2ccccc2)C(=O)N2CCOCC2)c2ccccc21	0.4%	-1.4	-1	0.1	1	-14
O=[N+]([O-])c1cc(S(=O)(=O)N2CCCC2)ccc1O	0.6%	-4.0	1	0.0	26	-20
COc1ccc(-c2nnc(SCC(=O)Nc3ccccc3OC)o2)cc1	?	-0.8	-10	1.5	-9	0
CC1CC(=O)N(CC(=O)Nc2cccc(F)c2)c2ccccc2S1(=O)=O (configuration not stated)	-1.3%	2.5	17	-0.7	35	-1
O=C(COc1cccnc1[N+](=O)[O-])Nc1ncc(Cl)cc1Cl	3.4%	1.8	-23	0.3	-14	0
COC(=O)c1cnc2c(C(F)(F)F)cccc2c1OC	-0.4%	-1.6	12	-0.2	3	-23
CN(CC(=O)Nc1ccccc1C(F)(F)F)C(=O)c1cccc(-n2cccc2)c1	3.5%	-2.5	-10	0.0	-6	-37
O=C(NCc1ccc(F)cc1)C1CCN(S(=O)(=O)c2cccc3nonc23)CC1	15%	-1.6	20	0.5	3	-2
O=C(CCc1[nH]c2ccccc2c1Sc1ccccc1)NCCO	2.0%	-4.3	-11	-0.3	.	-8
CC(C)(C)NC(=O)NC(=O)COC(=O)COc1ccc2c(c1)CCC2	-0.5%	-0.8	4	2.8	2	3

Profiles from above.
`CC1CC(=O)N(CC(=O)Nc2cccc(F)c2)c2ccccc2S1(=O)=O` (configuration not stated) is listed with PINK1 expr mod = -1.3%; D2 ag = 2.5; Six1-Eya2 blk = 17; TRPML1 agonist = -0.7; CtBP-E1A blk = 35; D2 potentiator = -1
`O=[N+]([O-])c1cc(S(=O)(=O)N2CCCC2)ccc1O` is listed with PINK1 expr mod = 0.6%; D2 ag = -4.0; Six1-Eya2 blk = 1; TRPML1 agonist = 0.0; CtBP-E1A blk = 26; D2 potentiator = -20

Three compounds out of the list above, arranged by their value in D2 potentiator, high to low.
SMILES	D2 potentiator
CC(C)(C)NC(=O)NC(=O)COC(=O)COc1ccc2c(c1)CCC2	3
CCCOc1ccc(C(=O)Nc2ccc(NC(=O)c3cccs3)cc2)cc1	1
CCc1noc(C)c1C(=O)N1CCN(S(=O)(=O)c2ccc(Cl)s2)CC1	-10

(list continues)
SMILES	PINK1 expr mod	D2 ag	Six1-Eya2 blk	TRPML1 agonist	CtBP-E1A blk	D2 potentiator
COc1ccc(COc2ccc(S(=O)(=O)N3CCCC3)cc2C(N)=O)cc1F	1.7%	-4.1	3	0.7	-15	-11
NC(=O)C1(N2CCCCC2)CCN(C(=O)c2ccc(C#CC3(O)CCCCC3)cc2)CC1	2.6%	-1.5	5	0.0	2	5
CCN(CC)CCCNc1nc2cc(OC)c(OC)cc2c2nc(-c3ccccc3)nn12	-4.4%	-4.5	-13	0.3	-18	-26
CCOC(=O)Oc1ccc2c(=O)c(Oc3cc(C)cc(C)c3)coc2c1	2.7%[38.3 µM]	-4.0	-28	0.9	-14	-9
OCCC1CN(Cc2cccc3c2OCO3)CCN1C1CCCCC1 (configuration not stated)	-0.4%	-2.5	2	0.1	.	-19
CCC(=NCCc1ccc(OC)c(OC)c1)c1ccccc1O	-1.1%	0.6	0	0.2	-1	-9
O=C(O)/C=C\C(=O)Nc1ccc(OC(F)F)cc1	0.9%	-5.8	8	0.5	.	-5
CCc1sc(-c2c(C#N)c(N)nc3c2CCCCCC3)cc1[N+](=O)[O-]	2.5%	-3.1	-2	-0.5	1	1
COc1ccc(OC)c(C(=O)COC(=O)c2ccc([N+](=O)[O-])o2)c1	1.6%	6.1	-3	1.2	-5	5
CC1=C(C(=O)Nc2ccccc2)C(c2ccc(Cl)cc2)n2c(s/c(=C/c3cccc(OCC(=O)O)c3)c2=O)=N1 (configuration not stated)	-0.5%	1.5	-5	0.0	-19	-7
CCC(NC(=O)c1ccc([N+](=O)[O-])cc1[N+](=O)[O-])c1ccccc1 (configuration not stated)	3.0%	11	-14	-0.1	-11	74*
CCCCCN(C(=O)CCC(=O)OCCOc1ccc(OC)cc1)c1c(N)n(CCCC)c(=O)[nH]c1=O	0.4%	-0.9	-6	-0.9	-1	1
Cc1ccnc(NC(=O)c2ccc(Cl)c(S(=O)(=O)N3CCCC3)c2)c1	1.1%	-2.9	-7	1.2	3	-68
Oc1ccc2ccccc2c1N=Nc1ccc(F)cc1	0.9%	-0.8	?	-0.1	-24	-3
CC1CCCC(NC(=O)c2ccc(COc3ccccc3)o2)C1C (configuration not stated)	1.6%	1.7	1	1.2	2	-2
Cc1ccc(S(=O)(=O)Cn2nnnc2C(C(C)C)N2CCSCC2)cc1 (configuration not stated)	0.7%[38.3 µM]	0.9	-2	0.2	-2	-15
CC(C)Cn1c(N)c(C(=O)COC(=O)CC23CC4CC(CC(C4)C2)C3)c(=O)n(C)c1=O	5.6%	6.1	-2	-0.1	1	-1
O=C(CCl)c1cc2c3c(c1)CC(=O)N3CCC2	-1.1%	-9.0	2	2.3	-5	-21
CCCS(=O)(=O)NC(=O)C1(C)CCCN(C(=O)c2ccc(C(F)(F)F)nc2C)C1 (configuration not stated)	-1.6%	-3.4	13	-0.6	-16	-11
CC(NCCC1(C(C)C)CCOC(C)(C)C1)c1cccs1 (configuration not stated)	2.3%	-5.0	4	-0.5	.	-18
Cc1ccc(S(=O)(=O)NC(=O)Nc2nnc(C3CC3)s2)cc1	.	-2.4	3	0.9	11	-14
N#CCCN(C(=O)COC(=O)CCN=C1NS(=O)(=O)c2ccccc21)c1ccc(F)cc1	-3.8%	0.1	3	-0.3	4	-16
COc1cc(/C=N/NC(=O)C2COc3ccccc3O2)ccc1O (configuration not stated)	-1.4%	-2.1	-4	0.2	-12	-6
O=C(NCCN1C(=O)S/C(=C\c2ccc(Cl)c([N+](=O)[O-])c2)C1=O)C1=COCCO1	-1.1%	0.3	-10	-0.4	-4	-5
Cc1ccc(Cn2ccc(NC(=O)c3cc(-c4ccco4)on3)n2)cc1	24%[38.3 µM]	0.4	2	0.2	13	-9
Cc1ccc(C(=O)CCC(=O)OCc2nnc(-c3ccccc3)o2)cc1	-1.7%	-5.8	4	1.8	-4	-10
OC(c1ccc(F)cc1)c1ncc(-c2ccccc2F)[nH]1 (configuration not stated)	0.2%	-3.6	0	-1.1	1	-9
O=C(O)CC(NS(=O)(=O)c1ccc(Br)cc1)c1ccco1 (configuration not stated)	-2.4%[38.3 µM]	-1.8	3	0.6	7	2
COCCn1cnnc1SCC(=O)Nc1ccc(Br)cc1F	2.0%	-4.6	27	-0.3	-1	-1
CCOC(=O)c1cc(-c2ccco2)nn1-c1ccc(C)cc1	1.2%	-2.4	-3	0.6	-5	-7
CN(Cc1ccccc1)S(=O)(=O)c1ccc(Cl)c(C(=O)OCC(=O)NC2CCS(=O)(=O)C2)c1 (configuration not stated)	1.5%	7.6	4	-0.4	6	2
N#Cc1cnn2c(C(F)(F)F)c3c(nc12)CCCC3	-0.5%	4.9	3	2.8	.	-37
COCCN(CCOC)S(=O)(=O)c1ccc(Cl)nc1	1.4%	4.0	2	-0.2	1	-5
Nc1c(Br)cc2oc(-c3ccccc3)nc2c1Br	2.7%	-1.8	-3	0.3	0	-6
COC1CCCCC1Nc1ccc(C)c(C)c1 (configuration not stated)	-0.8%[38.3 µM]	-1.4	-21	-0.6	-11	-4
O=C(O)c1cccc(S(=O)(=O)Nc2ccccc2Cc2ccccc2)c1	4.1%	0.9	6	1.0	-8	0
Cc1nc(NCCCN2CCOCC2)c2cnn(-c3ccccc3)c2n1	-3.6%	-1.1	-3	0.0	-7	-13
Nc1ccccc1C(=O)NN=Cc1cccnc1	1.7%	-3.9	-4	-0.4	-6	-1
Cc1ncc(S(=O)(=O)c2ccc(Cl)cc2)c(N)n1	-0.7%	-6.3	12	-0.5	-23	10
CCN(CC)C(=O)C1CCCN(C(=O)Nc2ccc(NC(=O)N3CCCC(C(=O)N(CC)CC)C3)cc2)C1 (configuration not stated)	?	-2.4	1	0.1	2	-6
O=C(CSc1ncnc2c1oc1ccccc12)NCc1ccco1	.	0.6	-2	0.1	9	10
Oc1ccc(Cl)cc1C=NCCc1ccccc1	7.6%	10	5	0.8	0	-7
Cc1csc2c(SCC(=O)NNC(=O)C(Cl)Cl)ncnc12	-1.3%	-0.1	4	0.5	.	-2
CCOc1cc(Br)c(C=O)cc1OCC	3.5%	-1.5	8	0.9	8	3
CC(=O)N1c2c(cc(Br)cc2S(=O)(=O)NCc2ccc3c(c2)OCO3)CC1C (configuration not stated)	-0.9%	-3.0	-2	-0.4	2	-13
CCOC(=O)C1=C(N)OC(C)=C(C#N)C1c1ccco1 (configuration not stated)	1.9%	-3.3	2	0.2	4	2
O=c1[nH]nc(SCc2nnc(-c3cccc(Cl)c3)o2)n1C1CCCCC1	-1.0%	2.8	2	-0.9	3	-2
COc1ccc(/C=N/NC(=O)C2C(C=C(Cl)Cl)C2(C)C)c(OC)c1 (configuration not stated)	3.7%	-1.3	-5	1.3	-2	-2
O=C(CCc1nc2ccccc2c(=O)[nH]1)NNC(=O)c1cccc(Cl)c1	0.8%	-0.2	-5	0.0	-10	-3
Cc1c(OCC(=O)NCCCN2CCCC2=O)ccc2c3c(c(=O)oc12)CCC3	0.9%	4.9	-13	-0.2	-16	-7
COC(=O)CCC(C)C1CCC2C3C(OC(C)=O)CC4CC(O)CCC4(C)C3CC(O)C12C (configuration not stated)	0.7%	-2.9	-2	0.7	-5	-9
COc1ccc(CNC(=O)COC(=O)c2ccc3ccccc3n2)cc1	3.4%	-3.4	2	3.0	1	10
O=C(O)c1cccc(NC(=O)c2cn(-c3ccccc3)nc2-c2cc3ccccc3o2)c1	-1.1%	0.4	-17	-0.5	6	8
Nc1nonc1-n1nnc(C(=O)N/N=C/c2ccncc2)c1CSc1ccc(Cl)cc1	12%	-3.2	1	0.0	8	-6
Fc1nc(F)c(F)c(NCCCNc2c(F)c(F)nc(F)c2F)c1F	?	5.7	14	0.0	.	-11
O=C(O)CCc1ccc(-c2ccc(Cl)cc2)n1CCC(=O)O	.	0.4	0	0.2	8	-19
CNC(=S)NNC(=O)c1cccn(Cc2ccccc2)c1=O	2.2%	1.4	-11	0.4	-4	-5
